miR-21 FLuc: qHTS Assay for Modulators of miRNAs and/orActivators of miR-21; 340,000 tested, under 10 active; HeLa miR-21 FLuc reporter, luciferase, 48 h; Potency, µM (doses to about 38.3 µM), for the others: at the highest dose reporter change, positive = more light; active = well fitted rising curve with a large enough effect; inconclusive = small, poorly fitted or top-dose-only effect; inactive = no such curve, though single readings can be large or run the other way;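 note: % of control where 0% means no effect; miR-21 action dims this reporter so a rising signal means less miR-21 action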
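HeLa miR-21-FLuc reporter line, endogenous miR-21; 2000 cells/well in DMEM/10% FBS; compound titration up to ~40uM final, 48 h, 37 degree Celsius; luciferase detection reagent, 15 min lysis, CCD luminescence.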
Rango dissoc inh: qHTS Assay for Inhibitors of RanGTP induced Rango (Ran-regulated importin-beta cargo) - Importin beta complex dissociation. Snurportin-1 (Homo sapiens) + GTP-binding nuclear protein Ran (Homo sapiens) + Importin …. Biochemical FRET Rango-importin beta, RanGTP-induced dissociation. Potency, µM (series often up to 46.1 µM), for inactives: at the highest dose activity change, negative = inhibition. 340,000 tested, 0.071% active; active means falling FRET ratio curve, often poorly fitted, with flat reads before Ran was added; inconclusive means other falling curves, or compound fluorescence or quenching; inactive means flat or rising ratio curve;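 note: potency is the fitted concentration of half-maximal effect; % of control where 0% means no effect; nearly all actives have a fitted effect of over 45% in size; -100% = wells without RanGTP and RCC1; the record marks most hits as doubtful in a second field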
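FRET read at 45 min, room temperature: inhibitors block the CFP/YFP signal rise when RanGTP (0.6 uM Ran, 2 mM GTP, 0.2 uM RCC1) frees Rango (0.1 uM) from importin beta (0.25 uM). Pre-read after 5 min compound exposure flags interference.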
GLA inh pH 4.5: qHTS Assay for Inhibitors of Human alpha-Galactosidase at pH 4.5. Alpha-galactosidase A (Homo sapiens), P06280. purified enzyme, 4-MU-alpha-Gal fluorescence, pH 4.5. activity change, negative = inhibition, % at 105 µM. 230,000 tested, under 10 active; inconclusive = small, poorly fitted or top-dose-only inhibition, or a rising curve; inactive = flat fitted curve, though single readings scatter; no compound was filed as active;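 note: 0% = full activity with enzyme and -100% = basal without enzyme; dose as in the result columns while the protocol names 77 µM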
Rango complex inh: qHTS Assay for Inhibitors of Rango (Ran-regulated importin-beta cargo) - Importin beta complex formation | Potency, µM (highest dose often 92.2 µM), for the others: at the highest dose inhibition of complex formation | 340,000 tested, 0.031% active | Rango CFP/YFP FRET sensor + importin beta, 45 min | Importin subunit beta-1 (Homo sapiens), Q14974; active = rising FRET ratio curve, often small or poorly fitted; inconclusive = mostly compound fluorescence or quenching in the first reads; inactive = flat curves in all reads;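 note: potency is the fitted concentration of half-maximal effect; 0% = DMSO wells and 100% = buffer wells lacking importin beta; nearly all actives have a fitted effect of over 15% in size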
Target sequence (Q14974 whole entry, looked up): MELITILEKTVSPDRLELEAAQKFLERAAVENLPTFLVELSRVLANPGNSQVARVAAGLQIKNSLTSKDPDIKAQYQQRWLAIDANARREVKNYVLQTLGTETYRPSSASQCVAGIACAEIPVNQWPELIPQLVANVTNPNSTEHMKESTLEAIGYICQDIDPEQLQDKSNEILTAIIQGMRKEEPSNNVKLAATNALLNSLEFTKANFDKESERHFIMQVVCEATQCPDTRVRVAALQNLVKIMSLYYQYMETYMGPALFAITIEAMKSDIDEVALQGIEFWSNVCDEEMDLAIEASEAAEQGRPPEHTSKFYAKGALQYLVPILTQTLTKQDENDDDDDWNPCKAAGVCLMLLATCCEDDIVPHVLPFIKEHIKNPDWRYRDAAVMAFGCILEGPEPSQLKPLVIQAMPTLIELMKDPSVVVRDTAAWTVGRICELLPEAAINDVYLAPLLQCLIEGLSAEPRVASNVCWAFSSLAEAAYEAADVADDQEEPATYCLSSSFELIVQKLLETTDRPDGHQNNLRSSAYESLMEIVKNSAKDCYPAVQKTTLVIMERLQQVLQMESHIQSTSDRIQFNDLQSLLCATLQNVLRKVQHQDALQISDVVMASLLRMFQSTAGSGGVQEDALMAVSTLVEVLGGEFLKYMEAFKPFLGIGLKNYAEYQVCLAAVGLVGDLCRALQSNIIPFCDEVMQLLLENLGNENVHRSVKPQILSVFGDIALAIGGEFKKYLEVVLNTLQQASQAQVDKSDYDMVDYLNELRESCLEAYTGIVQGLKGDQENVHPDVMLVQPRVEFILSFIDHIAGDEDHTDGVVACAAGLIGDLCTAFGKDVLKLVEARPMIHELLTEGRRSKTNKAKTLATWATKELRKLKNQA
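FRET biosensor Rango (snurportin 1 IBB between N-terminal EYFP and C-terminal Cerulean), 50 nM in PBS/1 mM DTT/0.02% Tween-20/0.1% BSA, preincubated 5 min RT with compound; 0.125 microM importin beta added, 45 min RT, CFP/YFP FRET ratio read.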
Numbers without * were called inactive; ? = inconclusive; . = not tested or not shown; & = joins results of further samples. An excerpt; rates above refer to the full screens.

A first look, 4 compounds:
SMILES | miR-21 FLuc | Rango dissoc inh | GLA inh pH 4.5 | Rango complex inh
O=C1CCCN1CC(O)CS(=O)(=O)Cc1ccccc1 (stereo unspecified) | -1% | -6% | . | -4.2%
O=S(=O)(NCCc1ccc(F)cc1)c1cccc2cccnc12 | -10% | 0% | 0 | -0.8%
COc1cccc(N2C(=O)C3NN=C(C(=O)CN4C(=O)c5ccccc5C4=O)C3C2=O)c1 (stereo unspecified) | -14% | 7% | ? | -1.1%
Cc1ccc(NC(=O)CSc2nc(N)c3c4c(sc3n2)CSC(C)(C)C4)cc1 | 22% | 7% | -5 | -3.6%

All compounds of this part, repeating the preview:
SMILES | miR-21 FLuc | Rango dissoc inh | GLA inh pH 4.5 | Rango complex inh
O=C1CCCN1CC(O)CS(=O)(=O)Cc1ccccc1 (stereo unspecified) | -1% | -6% | . | -4.2%
O=S(=O)(NCCc1ccc(F)cc1)c1cccc2cccnc12 | -10% | 0% | 0 | -0.8%
COc1cccc(N2C(=O)C3NN=C(C(=O)CN4C(=O)c5ccccc5C4=O)C3C2=O)c1 (stereo unspecified) | -14% | 7% | ? | -1.1%
Cc1ccc(NC(=O)CSc2nc(N)c3c4c(sc3n2)CSC(C)(C)C4)cc1 | 22% | 7% | -5 | -3.6%
CCOC(=O)c1ccc(NC(=O)C2CCN(S(=O)(=O)c3c(C)nn(C)c3C)CC2)cc1 | 5% | -7% | . | -0.1%
Cc1ccc(S(=O)(=O)NC(=O)NCCCN2CCOCC2)cc1 | 2% | 5% | . | -1.2%
CCC(Sc1nc(C)cc(C)n1)C(=O)Nc1ccc(Cl)cn1 (stereo unspecified) | -14% | -2% | -1 | 1.7%
Cc1ccccc1OCc1nc(-c2ccc(-n3cccc3)cc2)no1 | -12% | 3% | 2 | -1.5%
CCOCCCNCc1cccc(OC)c1 | 0% | 6% | -3 | 1.6%
N/C(=N\OC(=O)Cc1cccs1)c1ccc(Cl)cc1 | -44% | 3% | -7 | -4.7%
CC(C)C(C(=O)Nc1ccccc1)N1C(=O)c2ccccc2C1=O (stereo unspecified) | -8% | 10% | 4 | -1.0%
COc1cccc(C(=O)CSc2nc3cccnc3n2C)c1 | -7% | 19% | 4 | -1.7%
Cn1c(CNc2nc3ccccc3n2C)nc2ccccc21 | -42% | -2% | 11 | 0.7%
O=C(Cn1cnc2c(cnn2-c2ccc(F)cc2)c1=O)NCC1CCCO1 (stereo unspecified) | 0% | -9% | 5 | -4.5%
CC(=O)c1cccc(NC(=O)CN(C)S(=O)(=O)c2cccc3nsnc23)c1 | 2% | -22% | . | ?
Cc1ccc(Sc2ncccc2C(=O)NCc2cc([N+](=O)[O-])ccc2O)cc1C | -4% | -2% | . | 11%
O=C(Cc1ccccc1)Nc1cccc(-c2nnc(-c3ccco3)o2)c1 | 5% | -1% | -7 | 3.1%
Cc1ccc2c(C)c(C(=O)NCCN3CCOC3=O)oc2c1C | -18% | -11% | . | -1.4%
COc1cc(CNCc2ccncc2)cc(Br)c1OCc1ccccc1F | 20% | 0% | -6 | -1.2%
CCCCN(C)C(=O)CNC(=O)c1nn(-c2ccc(OC)cc2OC)c(=O)c2ccccc12 | -8% | -7% | . | 3.6%
O=C(Nc1cccc(S(=O)(=O)N2CCCCCC2)c1)C1CCN(C(=O)c2ccc(F)cc2)CC1 | . | -7% | . | 5.1%
Cc1cc(C(=O)Nc2ccccc2Cl)n(-c2ccccc2)n1 | -10% | -4% | . | 3.8%
Cc1ccc(Nc2nc(N)nc(CN3CCCCCC3)n2)cc1 | -11% | 1% | -6 | -2.1%
Cc1nc(NCCN)c(C#N)c2c1COC(C)(C)C2 | -8% | -3% | 0 | 0.4%
COc1cc2c(c(OC)c1)C(c1ccncc1)CC(=O)N2 (stereo unspecified) | 4% | 4% | 6 | 5.7%
Cc1cc(C)nc(Nc2ccc(F)cc2)n1 | -8% | 11% | . | -1.6%
N#C/C(=C/c1ccc(-c2ccccc2)o1)c1nc(-c2cccs2)cs1 | -14% | ? | -3 | ?
CC(=O)c1c(N2CCCC2)nc(=S)n(-c2ccccc2)c1C | 1% | -10% | 2 | 0.1%
COCCn1c(COc2ccccc2)nnc1SCC(N)=O | -10% | -12% | 3 | -1.8%
CCOC(=O)c1ccc[n+](CC(=O)Nc2cc(C(F)(F)F)ccc2Cl)c1 | 1% | 0% | -4 | -0.9%
CNC(=O)c1ccsc1NC(=O)CCS(=O)(=O)c1ccc(Cl)cc1 | . | 6% | . | -1.6%
CC(C)(C)OC(=O)NCCc1nnc(S(=O)(=O)Cc2ccc(Cl)cc2Cl)o1 | ? | -2% | -17 | -4.4%
Cc1c(C=O)c2ccccc2n1CC(=O)NCc1ccc2c(c1)OCO2 | -3% | -4% | 0 | -0.4%
N#Cc1c(-c2ccccc2)nc(-c2ccncc2)[nH]c1=O | 0% | -6% | -1 | -1.7%
Cc1cccc(OCc2nc3ccccc3n2C)c1 | -68% | 2% | . | -3.0%
CC1CC1C(=O)Nc1ccc(-c2ccccc2)cc1 (stereo unspecified) | -51% | 5% | 15 | 1.1%
COc1cccc(C(=O)Nc2c(F)c(F)c(F)c(F)c2F)c1 | -8% | 12% | ? | 8.2%
Cc1noc(C)c1CSCC(=O)N(C)CC(=O)Nc1ccc(F)c(F)c1F | . | 15% | . | 0.5%
Cc1cccc(OC(C)C(=O)N2CCN(Cc3ccc4c(c3)OCO4)CC2)c1 (stereo unspecified) | 3% | 1% | . | 0.5%
Cc1cc(C)n(C(=O)COc2ccc([N+](=O)[O-])cc2)n1 | 0% | 18% | 3 | 0.1%
CCOc1ccccc1NC(=O)CN(c1ccc(OC)cc1OC)S(=O)(=O)c1ccccc1[N+](=O)[O-] | 0% | -1% | 0 | 1.3%
O=C(O)CSc1cccc2cccnc12 | 3%&-1% | -1%&0% | 0&6 | -0.7%&0.2%
CCOc1cc(C(=O)Nc2c3c(nn2C(C)(C)C)CS(=O)C3)cc(OCC)c1OCC (stereo unspecified) | -4% | 14% | -8 | 1.2%
Cc1ccc(-n2c3nc(=O)[nH]c(=O)c-3cc3cc([N+](=O)[O-])ccc32)cc1 | 7% | -7% | 20 | -5.5%
O=C(CSCc1ccc([N+](=O)[O-])cc1)NC1CC2CCC1C2 (stereo unspecified) | -7% | 0% | 5 | 2.4%
CN(C)/C=N/c1ncc(C(=O)c2ccc(-c3ccccc3)cc2)s1 | 1% | ? | -1 | ?
COc1cc(C2NC(=O)NC(C)=C2C(=O)OCc2ccccc2)ccc1O (stereo unspecified) | -20% | 11% | 3 | 0.0%
CCOC(=O)/C(=C/c1ccccc1)NC(=O)c1ccco1 | 3% | 6% | -1 | -0.6%
COc1ccccc1OCCCCCNCCO | -8% | 11% | -12 | -0.6%
COc1ccc(S(=O)(=O)Cc2ccc(C(=O)NCc3ccccc3OC)o2)cc1 | -2% | 0% | . | -2.0%
New compounds follow:
SMILES | miR-21 FLuc | Rango dissoc inh | GLA inh pH 4.5 | Rango complex inh
COc1ccc(S(=O)(=O)Cc2ccc(C(=O)N3CCN(c4cccc(C)c4C)CC3)o2)cc1 | 17% | ? | -8 | 5.1%
CCCSC(=O)N(CC)CC(=O)Nc1c(CC)cccc1CC | -4% | 12% | 2 | -1.7%
O=C1CCCC(O)=C1Sc1ccccc1C(=O)O | 0% | 9% | -2 | -0.9%
CC1(NC(=O)c2cc(S(=O)(=O)N3CCCCC3)ccc2Cl)CCS(=O)(=O)C1 (stereo unspecified) | -3% | 8% | 2 | 3.7%
COc1cc([N+](=O)[O-])ccc1NC(=O)C1CCCN(S(C)(=O)=O)C1 (stereo unspecified) | . | -5% | . | -1.7%
COC(=O)c1ccsc1NC(=O)CCS(=O)(=O)c1ccccc1 | 7% | 16% | . | 3.4%
CC1CCCN(CC(=O)Nc2ccc(S(=O)(=O)N3CCCCC3)cc2)C1 (stereo unspecified) | -6% | -11% | 2 | 0.7%
COc1ccc(CNC(=O)C(C)Sc2ccc(C)cc2)cc1 (stereo unspecified) | -5% | -3% | 6 | 2.0%
c1ccc2cc3c(NCCN4CCOCC4)ccnc3cc2c1 | ? | ? | 7 | ?
COC(=O)c1ccc(CNC(=O)COC(=O)CC23CC4CC(CC(Br)(C4)C2)C3)cc1 | 4% | -19% | 7 | -1.9%
CC(CC(=O)NC1CCCC1)c1ccccc1 (stereo unspecified) | -9% | 11% | 5 | -5.7%
CCCCNC(=O)n1c(SC)nc2ccccc21 | -2% | 1% | 5 | 1.0%
O=C(CSc1nc2ccccc2s1)NNC(=O)Nc1ccc(Cl)c(Cl)c1 | -2% | -1% | -7 | ?
O=C(CN1C(=O)c2ccccc2C1=O)Nc1cccc(S(=O)(=O)Nc2ccccc2Cl)c1 | -2% | 16% | 5 | 4.2%
COc1cccc(-c2cc(C(F)(F)F)nc(N3CCOCC3)n2)c1 | -3% | -23% | -9 | 0.7%
CC(C)(C)n1cnc2cc(NC(=O)c3ccc(Cl)cc3)ccc21 | -51% | 39% | . | 0.4%
Cc1ccc(C(=O)Nc2nnc(Cc3ccccc3)s2)cc1 | -3% | 4% | . | -0.7%
CCOC(=O)c1ccc(N2C(=O)CC(N(C)Cc3ccccc3)C2=O)cc1 (stereo unspecified) | -2% | -10% | 8 | -0.1%
CCOC(=O)c1cc(C(=O)OCC)c2cc(Br)ccc2n1 | -2% | 3% | -10 | -0.2%
Cc1ccc(C(=O)N/N=C\c2c(C)nn(-c3ccccc3)c2Cl)cn1 | -25% | 0% | 1 | 2.0%
CCc1ccc(NC2=NC(C(=O)NC3CCCCC3)CC(=O)N2)cc1 (stereo unspecified) | 1% | -11% | 0 | -15%
CC1Sc2ccc(Cl)cc2-c2nc(N)ncc21 (stereo unspecified) | 0% | 1% | -8 | -0.1%
CC(C)Nc1ncnc2c1cnn2Cc1ccc(Cl)cc1 | -9% | 8% | . | -1.9%
O=C(OCc1nc2ccccc2s1)c1cc2ccccc2oc1=O | -58% | . | -10 | .
O=C(NC(Cc1ccccc1)C(=O)O)/C(=C/c1ccc([N+](=O)[O-])cc1)NC(=O)c1ccccc1 (stereo unspecified) | 1% | -16% | . | ?
COC(=O)C1CCN(C(=O)COC(=O)Cn2cnnn2)CC1 | 3% | 3% | -2 | -0.7%
Cc1cc2ccccc2c(=O)n1CC(=O)NCC(=O)N1CCN(c2cccc(Cl)c2)CC1 | 0% | 3% | -5 | -2.3%
c1ccc(CSc2ncnc3c2cnn3-c2ccccc2)cc1 | -13% | 2% | -2 | 4.5%
CSC1=NCCN1S(=O)(=O)c1ccc(F)cc1 | -7% | -11% | -4 | -0.2%
CCN(Cc1ccccc1)C(=O)CN1C(=O)c2ccccc2C1=O | -3% | 1% | . | -0.2%
COc1cccc(-n2c(-c3ccco3)nc3nc4ccccc4nc32)c1 | -1% | -10% | 3 | -1.9%
COC(=O)c1nnn(-c2ccc(Cl)c(Cl)c2)c1C(=O)OC | 0% | 1% | 4 | 0.4%
Cc1cc(C(=O)N2CCN(S(=O)(=O)c3ccccc3F)CC2)c(C)o1 | -10% | 4% | 3 | 1.4%
CCC(=O)Nc1nnc(SCc2ccccc2F)s1 | -23% | 6% | -5 | 0.1%
O=C(Cc1nc(-c2ccc([N+](=O)[O-])cc2)cs1)Nc1ccccc1 | 5% | ? | ? | ?
Cc1cc(C)cc(N(C(C)C(=O)Nc2c(C)n(C)n(-c3ccccc3)c2=O)S(C)(=O)=O)c1 (stereo unspecified) | -6% | 0% | 12 | -1.4%
Oc1c(C=NCc2ccccc2)sc2ccccc12 | -28% | ? | 0 | ?
COc1ccc(/C(O)=C2\C(=O)C(=O)N(c3cc(C)on3)C2c2ccccc2OC)cc1C (stereo unspecified) | -2% | ? | -7 | -4.8%
COc1cc(OC)cc(C(=O)N[C@H](C(=O)OCC(=O)c2ccc(F)cc2)C(C)C)c1 | -1% | -2% | -1 | -0.9%

Screening results from PubChem.
